gsp antagonist: qHTS for Antagonists of gsp, the Etiologic Mutation Responsible for Fibrous Dysplasia/McCune-Albright Syndrome: qHTS | gsp-mutant cells, cAMP HTRF, 30 min; control for the full effect not named in the record | Potency, µM (doses to about 76.9 µM), for the others: at the highest dose activity change, negative = inhibition, hits mostly inhibitors | 340,000 tested, 0.4% active | AID 624288, 2012; active = falling curve of any shape with a large fitted effect; inconclusive = falling curve, mostly with a smaller effect; inactive = flat or rising curve; cell line not stated here;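 further: intracellular cAMP measured with PDE inhibitor Ro 20-1724 present during compound exposure; potency means the concentration at half of the fitted maximal effect; on the % scale 0 is the no-effect control and ±100 the full control effect; nearly all actives have a fitted effect of over 65% in size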
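Measurement of cellular cAMP by homogeneous time-resolved fluorescence following a 30 min compound exposure at 37C. The PDE inhibitor […] was present throughout; the assay buffer was DPBS with 0.05% BSA and 0.005% Tween 20.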
Sfp PPTase inh: qHTS Assay for Inhibitors of Bacillus subtilis Sfp phosphopantetheinyl transferase (PPTase). 4'-phosphopantetheinyl transferase ffp (Bacillus subtilis), Q9F4F7. Biochemical Sfp PPTase activity, qHTS. Potency, µM, without a hit: max response, negative = inhibition, actives largely listed as inhibitors. 310,000 tested, 3.5% active. AID 1490, 2009; active means well fitted inhibition curve with a large enough effect; inconclusive means small, poorly fitted or top-dose-only effect, or another doubt; inactive means no such curve, though single readings can be large or run the other way;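 further: the enzyme is Sfp with the accession as filed and its product quenches rhodamine fluorescence; potency means the concentration at half of the fitted maximal effect; 0% = enzyme reaction without inhibitor and -100% = no enzyme wells; top concentration of the series not given in the record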
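Sfp 15 nM + cpd, 15 min RT; start w/ rhodamine-CoA 5 uM, BHQ-2-YbbR 12.5 uM (final); 50 mM Hepes pH 7.6, 10 mM MgCl2, 0.01% NP-40, 0.01% BSA; read 525/598 nm at 0 and 30 min.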
gsp agonist: qHTS for Agonist of gsp, the Etiologic Mutation Responsible for Fibrous Dysplasia/McCune-Albright Syndrome: qHTS. gsp mutant cells, cAMP HTRF, 30 min; control for the full effect not named in the record. Potency, µM (doses to about 76.9 µM), for the others: at the top dose activation (cAMP increase), usual class: activators. 340,000 tested, 0.13% active. AID 624287, 2012; active = well fitted activation curve with a large enough effect; inconclusive = small, poorly fitted or top-dose-only effect, or another doubt; inactive = no such curve, though single readings can be large or run the other way; cell line not stated here;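 further: phosphodiesterase inhibitor Ro 20-1724 added with compounds to block cAMP breakdown; potency means the concentration at half of the fitted maximal effect; nearly all actives have a fitted effect of over 60% in size; about a fifth of the inactives were tested at one dose only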
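Cells in DMEM/10% FBS with G418 were pretreated with compounds in DMSO plus […] (300 uM stock) for 30 min at 37C. cAMP was measured by HTRF (cAMP-d2 plus anti-cAMP antibody-K) after 30 min at room temperature.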
CtBP-E1A blk: qHTS Assay for Inhibitors of the CtBP/E1A Interaction; 340,000 tested, 0.49% active; AlphaScreen GST-E1A/His-CtBP binding, 1536-well; stronger effect = lower value; control for the full effect not named in the record; activity change, % (test concentration not listed); CtBP / adenovirus E1A interaction (AlphaScreen); AID 651724, 2012; in the data active means activity change below about -65%; inconclusive means about -30% to -65%; inactive means above about -30%; further: on the % scale 0 is the no-effect control and ±100 the full control effect; compound concentration not given in the record
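Protein mix (5X: 125 nM each GST-E1A, His-CtBP) was incubated with pinned compound 2 h at 37 deg C in dark, in 50 mM Tris pH 8.0 buffer with 300 mM NaCl. Glutathione donor and nickel acceptor beads followed; AlphaScreen signal read after 1 h.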
ClpP mod: qHTS Assay for Activators of ClpP. purified B. subtilis ClpP, FRET peptide cleavage, 20 min. ATP-dependent Clp protease proteolytic subunit (Bacillus subtilis (strain 168)), P80244. 340,000 tested, 1.9% active. Potency, µM (titrated, usually from 57.5 µM), inactives show top-dose activity change, negative = active. AID 651965, 2013; active = well fitted falling curve with a large enough effect; inconclusive = small, poorly fitted or top-dose-only effect; inactive = no such curve, though single readings can be large or run the other way; further: potency means the concentration at half of the fitted maximal effect; the source files actives as falling curves though it sought activators and does not explain the sign; nearly all actives have a fitted effect of over 65% in size; many hits overshoot -100%
Target sequence (P80244 whole entry, looked up): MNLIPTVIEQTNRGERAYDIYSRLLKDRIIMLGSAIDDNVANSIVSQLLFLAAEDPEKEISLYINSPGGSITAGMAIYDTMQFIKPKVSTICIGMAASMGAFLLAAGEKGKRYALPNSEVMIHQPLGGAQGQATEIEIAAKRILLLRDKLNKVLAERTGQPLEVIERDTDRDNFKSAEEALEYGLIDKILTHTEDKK
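ClpP 10 microg/mL final, pH 8 Tris/KCl buffer with BSA, glycerol, Tween-20; compound pinned in; FRET-FV substrate; RT 20 min; Ex320/Em430; ΔFRET vs ADEP 5.8 microM, DMSO, no enzyme.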
Menin MLL FP FL: qHTS Assay for Inhibitors Targeting the Menin-MLL Interaction in MLL Related Leukemias: Competition With Fluorescein Labeled MLL-derived Peptide; 290,000 tested, under 10 active; FP activity change, % at 61.4 µM; Fluorescence polarization, fluorescein-MLL peptide displacement from menin; inconclusive = falling polarisation curve, or a change in total fluorescence; inactive = total fluorescence flat and polarisation flat or rising; no compound was filed as active; the % refers to the polarisation; negative = inhibition;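 further: % of control where 0% means no effect; inhibitors lower the polarisation; unlabelled MLL peptide was the positive control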
TRPV1 PAM: HTS Assay for Compounds that Act as Potentiators of the Vanilloid Receptor 1; 320,000 tested, 0.02% active; potentiation, % at 8.33 µM; TRPV1-expressing cells, Fluo-8 calcium influx, capsaicin EC20 potentiation; host cell line not named in the record; control for the full effect not named in the record; Transient receptor potential cation channel subfamily V member 1 (Homo sapiens), Q8NER1; AID 540277, 2011; active means potentiation above 80%; inconclusive means 30% to 80%; inactive means below 30%; further: 0% is about no effect
Target sequence (Q8NER1 whole entry, looked up): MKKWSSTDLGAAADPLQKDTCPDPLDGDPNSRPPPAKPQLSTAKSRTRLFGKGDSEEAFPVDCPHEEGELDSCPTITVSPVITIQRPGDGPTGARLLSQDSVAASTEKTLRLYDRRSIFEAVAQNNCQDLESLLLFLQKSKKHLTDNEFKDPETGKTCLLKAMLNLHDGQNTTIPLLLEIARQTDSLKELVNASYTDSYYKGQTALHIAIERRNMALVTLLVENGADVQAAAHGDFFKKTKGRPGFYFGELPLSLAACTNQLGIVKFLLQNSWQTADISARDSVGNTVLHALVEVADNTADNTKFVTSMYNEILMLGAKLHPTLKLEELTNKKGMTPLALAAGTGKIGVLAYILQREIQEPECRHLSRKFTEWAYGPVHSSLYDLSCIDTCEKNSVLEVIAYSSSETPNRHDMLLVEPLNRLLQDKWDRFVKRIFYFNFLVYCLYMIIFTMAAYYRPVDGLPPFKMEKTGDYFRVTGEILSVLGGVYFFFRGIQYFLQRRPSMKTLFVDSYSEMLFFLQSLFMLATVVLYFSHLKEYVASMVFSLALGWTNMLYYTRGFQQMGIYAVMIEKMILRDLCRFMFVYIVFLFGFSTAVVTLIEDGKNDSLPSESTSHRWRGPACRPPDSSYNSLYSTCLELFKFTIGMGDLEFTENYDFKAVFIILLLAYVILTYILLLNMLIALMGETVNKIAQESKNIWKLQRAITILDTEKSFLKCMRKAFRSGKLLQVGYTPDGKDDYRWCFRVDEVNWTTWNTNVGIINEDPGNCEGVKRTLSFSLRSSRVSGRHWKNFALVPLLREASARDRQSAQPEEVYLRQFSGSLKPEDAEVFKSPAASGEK
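Cells expressing TRPV1 were dye-loaded with Fluo-8 and read kinetically: 10 s baseline, 3 min after compound (agonist portion), then 2 min after EC20 capsaicin (allosteric enhancer portion). Calcium-bound dye fluorescence at 480/520 nm.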
* = called active by the depositor; u = inconclusive; x = not tested or not shown; & = joins results of further samples; [ ] = remark or other dose.

1. O=C(c1cc(C2CC2)nn1-c1ccccc1)N1CCN(Cc2ccccc2)CC1
2. Cc1ccc(S(=O)(=O)N2CCN(C(=O)CSC3CCCC3)CC2)c(C)c1
3. CCOC(=O)C1CCCN(C(=O)Nc2ccccc2)C1 (stereo not given)
4. O=C(CSc1nnnn1-c1ccccc1)c1ccc(O)cc1O
5. CC1CCN(S(=O)(=O)c2ccc(NC(=O)CCN3C(=O)c4ccccc4C3=O)cc2)CC1
6. COc1ccccc1NC(=O)Nc1nc2ccc(S(N)(=O)=O)cc2s1

compound no.	1	2	3	4	5	6
gsp antagonist	x	-23%	5%	-16%	u	-3%
Sfp PPTase inh	x	4%	27%	4%	2%	-25%
gsp agonist	u	9%	-30%	21%	-32%[inhibitor]	14%[15.4 µM]
CtBP-E1A blk	-1	-7	1	x	-3	0
ClpP mod	1.6%	-2.3%	-2.8%	1.5%	0.5%	x
Menin MLL FP FL	x	0.5	1.0	5.3	1.0	15
TRPV1 PAM	x	-8	7	12	-17	-6

Arranged by number of heavy atoms (lowest first): part of the list above.
3. CCOC(=O)C1CCCN(C(=O)Nc2ccccc2)C1 (stereo not given)
4. O=C(CSc1nnnn1-c1ccccc1)c1ccc(O)cc1O
6. COc1ccccc1NC(=O)Nc1nc2ccc(S(N)(=O)=O)cc2s1
2. Cc1ccc(S(=O)(=O)N2CCN(C(=O)CSC3CCCC3)CC2)c(C)c1
5. CC1CCN(S(=O)(=O)c2ccc(NC(=O)CCN3C(=O)c4ccccc4C3=O)cc2)CC1

compound no.	3	4	6	2	5
gsp antagonist	5%	-16%	-3%	-23%	u
Sfp PPTase inh	27%	4%	-25%	4%	2%
gsp agonist	-30%	21%	14%[15.4 µM]	9%	-32%[inhibitor]
CtBP-E1A blk	1	x	0	-7	-3
ClpP mod	-2.8%	1.5%	x	-2.3%	0.5%
Menin MLL FP FL	1.0	5.3	15	0.5	1.0
TRPV1 PAM	7	12	-6	-8	-17

New compounds follow.
7. Cc1ccccc1C(=O)Nc1ccc(N2CCN(C)CC2)nc1
8. COc1cc(C=O)ccc1OCC(=O)N1CCCC1
9. C#CCOCCOCCOCCNc1nc(N2CCN(C(=O)[C@H](CCCCN)n3cc([C@@H](N)CC(C)C)nn3)CC2)nc(N2CCN(C(=O)[C@H](Cc3cc4ccccc4[nH]3)n3cc([C@@H](N)Cc4ccc(O)cc4)nn3)CC2)n1
10. CN(Cc1ccccc1)C(=O)c1ccccc1N(C)S(=O)(=O)c1ccccc1
11. Cn1c(SCc2nnc(-c3ccccc3)o2)nc2ccccc21
12. CN(C)/C=N/C(=S)Nc1ccccc1Cl

compound no.	7	8	9	10	11	12
gsp antagonist	-3%	-4%	11%	-11%	x	-5%
Sfp PPTase inh	-3%	13%	-17%	x	12%	50µM*
gsp agonist	-14%[15.4 µM]	4%	u	19%[15.4 µM]	-6%[15.4 µM]	-11%[15.4 µM]
CtBP-E1A blk	-7	x	-24	-3	-12	0
ClpP mod	x	-13%	0.9%	x	x	x
Menin MLL FP FL	-5.3	-1.4	19	x	2.1	0.4
TRPV1 PAM	-11	-7	-16	0	1	7

13. Cc1ccc(C(=O)NNC(=O)c2cc3cc4ccccc4nc3s2)cc1
14. CCOc1ccc(NC(=O)CSc2n[nH]c(N)n2)c([N+](=O)[O-])c1
15. Cc1cc([N+](=O)[O-])c(C(C)(C)C)cc1N
16. CCCN1CNC(=S)N(c2cccc(C)c2C)C1
17. CN(c1ccc(OCC(=O)OCC(=O)Nc2ccc([N+](=O)[O-])cc2)cc1)S(=O)(=O)c1cccs1
18. Cn1c(-c2ccccc2)cc(=O)c2ccccc21

compound no.	13	14	15	16	17	18
gsp antagonist	-10%	-12%	2%	-4%	-12%	5%
Sfp PPTase inh	-2%	7%	17%	13%	x	20%
gsp agonist	u	12%[15.4 µM]	0%	-4%	12%	1%
CtBP-E1A blk	-2	1	-5	2	-3	8
ClpP mod	-12%	-0.4%	-0.9%	-0.5%	-16%	-1.4%
Menin MLL FP FL	9.5	7.7	0.9	6.6	x	1.0
TRPV1 PAM	7	-2	-17	2	x	4

19. CCOC(=O)CCSCC(=O)Nc1nnc(C)s1
20. COc1ccc(S(=O)(=O)Nc2ccccc2N2CCOCC2)cc1OC
21. COCCN1C(=O)C(O)=C(C(=O)c2cccs2)C1c1ccccc1 (stereo not given)
22. O=C(CNc1ccc2ccccc2c1)N/N=C/c1ccc(C(=O)O)cc1
23. CCCCN(CCCC)C(=O)C1CC=CCC1C(=O)O (stereo not given)
24. O=C(Nc1ccc2c(c1)OCO2)O[C@@H]1C[C@H]2CCC(=O)N3CC[C@@H](C1)[C@@H]23

compound no.	19	20	21	22	23	24
gsp antagonist	-1%	6%	8%	6%	14%	-1%
Sfp PPTase inh	15%	x	4%	-3%	23%	3%
gsp agonist	u	0%	3.5µM*	1%	10%[15.4 µM]	-6%
CtBP-E1A blk	6	0	0	-4	22	-3
ClpP mod	-1.3%	-2.1%	3.3%	x	x	0.9%&0.3%
Menin MLL FP FL	3.4	x	-1.4	0.5	-0.3	u
TRPV1 PAM	3	-8	-7	5	2	-1

25. CC(=O)Nc1ccccc1OCc1nnc(-c2ccc(Cl)cc2)o1
26. COc1ccccc1C(=O)NCC(=O)Nc1cccnc1
27. COc1cc([N+](=O)[O-])c2nc(C=NNC(N)=S)ccc2c1
28. CCOc1ccccc1Nc1ccc2nonc2c1[N+](=O)[O-]
29. CC(c1nnnn1C(C)(C)C)N(Cc1cccnc1)Cc1ccccc1Cl (stereo not given)
30. CCOc1ccc2nc(N3CCC(C(=O)N4CCN(c5ncccn5)CC4)CC3)sc2c1

compound no.	25	26	27	28	29	30
gsp antagonist	3%	x	-8%	-1%	40µM*	-6%
Sfp PPTase inh	24%	10%	x	1%	13%	3%
gsp agonist	6%	x	4%	u	-27%	7%
CtBP-E1A blk	0	x	-16	0	-2	1
ClpP mod	x	x	-6.2%	-0.2%	0.2%	-3.0%
Menin MLL FP FL	0.1	-8.6	x	2.2	-2.8	1.0
TRPV1 PAM	4	8	x	-4	-5	-2

31. CCC(C)(C(=O)NC1CCCC1)N(C(=O)Cc1cccs1)c1c(C)n(C)n(-c2ccccc2)c1=O (stereo not given)
32. COc1ccc(N2CCN(C(=O)C3COc4ccccc4O3)CC2)cc1 (stereo not given)
33. CC(C)[C@H](NC(=O)c1ccccc1)C(=O)Nc1cccc(S(=O)(=O)N2CCOCC2)c1
34. COc1ccc(/C=C(\C#N)c2cc(OC)c(OC)cc2[N+](=O)[O-])cc1
35. COc1cc(CNc2ccccc2)c([N+](=O)[O-])cc1OC
36. Cc1cc(Nc2ncc(Cl)cc2Cl)n(-c2ccccc2)n1

compound no.	31	32	33	34	35	36
gsp antagonist	1%	-2%	-3%	-6%	-7%	5%
Sfp PPTase inh	21%	7%	x	23%	45µM*	3%
gsp agonist	-15%[15.4 µM]	-6%	u	3%[15.4 µM]	9%[15.4 µM]	-4%[15.4 µM]
CtBP-E1A blk	-2	-7	5	0	-12	11
ClpP mod	x	-0.5%	-2.1%	x	-1.0%	0.3%
Menin MLL FP FL	0.0	4.0	x	-1.5	-2.2	1.4
TRPV1 PAM	-8	3	-3	0	12	-1

37. CC(C)NC(=O)c1ccc2c(c1)nnn2C
38. CC1CC1C(=O)N1CCN(S(=O)(=O)c2cccc(F)c2)CC1 (stereo not given)
39. O=C1CSc2ccccc2N1Cc1ccccc1F
40. Cc1ccc(S(=O)(=O)N(C)C)cc1NC(=S)Nc1ccc2[nH]c(=O)[nH]c2c1
41. Cc1cc(NC(=O)CSc2nnc(-c3cccc(F)c3)n2N)no1
42. COc1ccc(-c2ccc(SCC(=O)Nc3nccs3)nn2)cc1OC

compound no.	37	38	39	40	41	42
gsp antagonist	9%	5%	-21%	3%	15%	-1%
Sfp PPTase inh	14%	x	9%	u	x	6%
gsp agonist	13%	-52%	-23%	21%	u	-18%[15.4 µM]
CtBP-E1A blk	1	2	6	x	3	86
ClpP mod	1.3%	u	0.1%	-0.9%	-0.9%	x
Menin MLL FP FL	2.0	x	-1.3	-0.9	x	-0.8
TRPV1 PAM	-10	10	9	-7	-4	12

43. O=C(Cc1cccs1)NCCS(=O)(=O)N1CCN(c2ccccc2F)CC1
44. CC1(C)Cc2c(C#N)c(NC3CCCCC3)nc(-c3ccco3)c2CO1
45. Cc1ccc(-n2c(SCn3nnc4ccccc4c3=O)nnc2-c2cccnc2)c(C)c1
46. CC1CCN(S(=O)(=O)c2ccc3ncn(CC(=O)N(C)C4CCCCC4)c(=O)c3c2)CC1
47. CCCCOc1ccc(C(=O)N/C(=C/C=C/c2ccccc2)C(=O)N2CCOCC2)cc1
48. CC(C)CCNC1=NCCCCC1

compound no.	43	44	45	46	47	48
gsp antagonist	-6%	x	-4%	11%	-2%	-12%
Sfp PPTase inh	x	3.5µM*	-28%	13%	-29%	2%
gsp agonist	17%	x	7%	-4%[15.4 µM]	u	-32%
CtBP-E1A blk	-11	x	7	-7	-3	10
ClpP mod	-6.0%	x	-0.5%	x	0.2%	0.2%
Menin MLL FP FL	x	u	15	-1.6	3.6	-2.6
TRPV1 PAM	0	-11	-6	-5	-5	10
